Compound activity (PubChem)
MT1-MMP act inh = inhibitors of human MT1-MMP activation; hit rate 0.061% among 360,000; HT1080 RFP-PRO-GFP cells, GFP/RFP ratio fluorescence, overnight; percent of plate control window, DMSO zero; GFP/RFP ratio change, % at 20 µM;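 active = GFP/RFP ratio change of at least 30% with cell ATP level not reduced by more than half and red fluorescence within 50% of control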; also: strong numbers were not always called active
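Material – HT1080 RFP-PRO-GFP cells · Control set – DMSO wells and RFP-L50D-GFP cells · Incubation – overnight cell settling, then overnight compound exposure, 37 °C, 5% CO2 · Compound dosing – single-point 20 µM compound, 1% DMSO · Read-out – GFP/RFP fluorescence ratio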
eIF4H inh = inhibitors of RNA binding by human eIF4H. Q15056. eIF4H fluorescence polarization binding assay. inhibition, % at 35 µM. hit rate 0.94% among 290,000;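 active = 50% or more with normal probe brightness, or confirmed in later tests; inconclusive = above 50% with abnormal brightness, or retests that disagree; inactive = below 50% or failed in later tests; about a fifth of its hits are not listed in these tables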;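 also: calls also rest on retests at 20 µM and on dose response follow-up; 0% = protein and probe with vehicle and 100% = probe without protein; strong numbers were not always called active; many hits fall short of the cut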
PABP polyA inh = PABP-poly(A) binding inhibition | inhibition, % at 35 µM | hit rate 1% among 290,000 | P11940 | PABP-poly(A) RNA binding, fluorescence polarization;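 active = 50% or more with normal probe brightness, or confirmed in later tests; inconclusive = above 50% with abnormal brightness, or retests that disagree; inactive = below 50% or failed in later tests; about a fifth of its hits are not listed in these tables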;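 also: calls also rest on retests at 20 µM and on dose response follow-up; controls were probe without protein and protein plus probe with vehicle; some compounds called inactive have numbers as strong as hits; many hits fall short of the cut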
CSC inhib = cancer stem cell inhibition. cancer stem cell-like cells viability, luminescence. inhibition, % at 7.5 µM. hit rate 1.1% among 300,000;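 active = mean at 75% or more and at least half the replicates too; inconclusive = mean and replicates disagree; tested in HMLE shEcad cells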;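 also: 0% = median of negative and 100% = median of positive control wells; the first replicate is given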
UUG fidelity = alters start codon recognition fidelity in yeast; S. cerevisiae UUG-firefly luciferase reporter, luminescence/redox ratio; activity score, % at 18.7 µM; hit rate 0.13% among 350,000;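 active = replicate mean at a twofold rise or more, about +100% in these data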;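 also: firefly luciferase made from a UUG start codon reports start codon fidelity; reporter light over untreated wells divided by growth signal over untreated wells; some hits fall short of that in this replicate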
Rce1 inhib = yeast Ras-converting enzyme inhibition | Q03530 | yeast membranes, quenched prenylated peptide cleavage fluorescence | calls only | hit rate 0.27% among 290,000 | AID 2563;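 active = fall in fluorescence gain of 50% or more versus controls, with final raw signal at or below 3038400; inconclusive = same 50% fall but final raw signal above 3038400; inactive = fall in fluorescence gain under 50%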;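 also: plate controls were neutral control wells for no effect and wells lacking membranes for full effect; tested at 10 µM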
Target sequence (Q03530 whole entry, looked up): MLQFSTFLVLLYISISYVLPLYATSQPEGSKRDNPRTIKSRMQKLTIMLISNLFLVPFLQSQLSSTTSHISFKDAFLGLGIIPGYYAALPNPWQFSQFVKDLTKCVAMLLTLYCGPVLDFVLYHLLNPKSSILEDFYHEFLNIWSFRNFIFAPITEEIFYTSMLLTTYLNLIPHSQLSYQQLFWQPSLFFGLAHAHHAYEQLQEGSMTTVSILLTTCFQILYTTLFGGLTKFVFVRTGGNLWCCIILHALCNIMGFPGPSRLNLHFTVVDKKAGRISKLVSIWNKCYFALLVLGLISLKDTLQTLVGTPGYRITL
HIV Env fusion = inhibitors of HIV Env-mediated cell fusion. HeLa-JRFL Env/CEM21 cell fusion, luciferase. inhibition, % at 12.3 µM. hit rate 1.1% among 360,000. AID 651610;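 active = mean replicate inhibition score of at least 50 and every replicate individually at or above 50; inconclusive = only one of the two criteria met; inactive = mean below 50 and not all replicates reaching 50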;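 also: 0% = plate neutral controls and 100% = maraviroc near 300 nM; one replicate is shown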
eIF4H inh retest = second read-out of eIF4H inh, no call of its own (marks repeat the call); inhibition, %; compound at 20 µM; confirmation average;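 mean of two retest wells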
PABP polyA inh retest = recorded beside PABP polyA inh, whose call it bears; inhibition, %; compound at 20 µM; confirmation repeats;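 mean of two retest wells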
MT1-MMP act inh RFP = second read-out of MT1-MMP act inh, no call of its own (marks repeat the call); RFP signal change, %; measured here: RFP expression control read;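 0 = vehicle wells; hits needed this value within 50% of zero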
The depositor's hits bear a star; i = inactive; ? = inconclusive; · = not tested or not shown. The list is partial; count on the stated rates, not on these rows.

SMILES	MT1-MMP act inh	MT1-MMP act inh RFP	eIF4H inh	PABP polyA inh	CSC inhib	UUG fidelity	Rce1 inhib	HIV Env fusion	others
Cc1cc(C)c(C(=O)/C=C/c2cccs2)c(=O)[nH]1	-7	-4	2	-6	-16	·	i	0
O=C(c1ccco1)N1CCN(Cc2cn[nH]c2-c2cccc3ccccc23)CC1	0	2	-5	10	-21	·	i	3
CSc1ccc(C(=S)N2CCN(CCO)CC2)cc1	3	7	9	-12	5	·	i	·
CCCC(=O)N1CCN(c2ccc(NC(=O)c3cc4ccccc4o3)cc2)CC1	1	-12	-7	2	-2	-3	·	·
C=C1CCN([C@H](C(=O)NCc2ccccc2)C(C)C)S(=O)(=O)c2ccccc21	0	-1	32	30	8	-6	i	4
NNC(=O)COc1cccc(Oc2ccccc2)c1	7	1	1	-16	6	·	i	-8
Cc1cc(C)nc(NC2=NCC(=O)N2c2ccc(Cl)cc2)n1	-2	-4	-5	4	-9	-2	·	·
COc1cccc2cc(C(=O)C3=C(O)C(=O)N(CCN(C)C)C3c3ccc(Cl)cc3)oc12 (stereo not given)	2	-2	5	11	1	·	i	-2
COc1ccc2c(/C=C/c3cc[n+](C)cc3)c[nH]c2c1	-111	-17	-11	-28	0	-5	i	47
CN(C)CCN1C(=O)C(=O)/C(=C(/O)c2ccc(S(=O)(=O)N3CCOCC3)cc2)C1c1ccccc1 (stereo not given)	2	8	-4	-6	5	-2	·	·
CCOc1ccc(Cn2c3ccc(OC)cc3c3nc4ccccc4nc32)cc1OC	-35	-1	?	-12	52	·	i	1
CC(=O)Nc1ccc(OC(F)(F)C(F)C(F)(F)F)c(NC(C)=O)c1 (stereo not given)	2	7	6	-6	-12	-17	i	-106
Cc1cccc(NC(=S)NNC(=O)c2sccc2C)c1	7	2	1	0	5	-33	i	·
Cc1nnc(SCC(=O)NNC(=O)c2ccc(Cl)cc2)n1CC1CCCO1 (stereo not given)	-2	4	-4	-15	3	·	i	-3
CCOc1ccc(-n2ccc(=O)c(C(=O)Nc3ccc(S(=O)(=O)N4CCOCC4)cc3)n2)cc1	1	-5	-2	-8	-5	7	i	5
CC(C)CCN1CCN(Cc2nc(-c3ccc(F)cc3)cs2)CC1CCO (stereo not given)	1	2	-3	0	11	·	i	-3
O=C(N1CCOCC1)N1CCN(CC(O)COc2ccc3ccccc3c2)CC1 (stereo not given)	3	7	-8	-8	-13	-16	i	·
CC(NC(=O)Nc1ccc(O)cc1)(C(F)(F)F)C(F)(F)F	8	6	103	130	-7	5	i	·	eIF4H inh retest=-15;PABP polyA inh retest=17
CCOc1ccc(N2C(=O)/C(=C/c3ccc(C)o3)N(C)C2=S)cc1	-2	-4	4	-1	5	-2	i	3
COc1cc(C2Nc3cc(Cl)c(S(N)(=O)=O)cc3S(=O)(=O)N2)ccc1OCc1ccccc1 (stereo not given)	1	-6	6	3	7	-4	i	-220
CCCCn1c(N)c(N(CCC(C)C)C(=O)CSc2nnc3ccccn23)c(=O)[nH]c1=O	-1	-1	-5	-18	-5	·	i	·
C=CCn1cc([N+](=O)[O-])nc1C	2	6	4	-5	-4	·	i	0
O=C(c1ccc2c(c1)OCO2)C1CCCN(Cc2cccn2-c2cccnc2)C1 (stereo not given)	1	-2	26	-6	-16	·	i	-1
Cc1cc(C(=O)CCl)c(C)n1-c1cccc(S(=O)(=O)N2CCOCC2)c1	·	·	-7	-2	8	·	i	16
O=C(Nc1ccccc1Oc1cccnc1)C1CCCN(C/C=C/c2ccc(F)cc2)C1 (stereo not given)	0	0	-1	2	30	-10	i	31
CN1C(=O)SC(Nc2ccc(F)cc2)C1=O (stereo not given)	-9	5	-9	-7	-7	-12	i	-56
CCCNS(=O)(=O)c1ccc(CCC(=O)N2CCCC2)cc1	-1	0	-15	-13	-8	·	i	-6
COc1ccc(N2CCN(c3cc(C(=O)Nc4cc(OC)c(OC)c(OC)c4)ncn3)CC2)cc1OC	5	4	·	·	·	-12	·	-17
O=C(NNC(=O)c1ccccc1O)c1ccc(Cl)c(S(=O)(=O)N2CCCCC2)c1	2	-16	·	·	25	11	i	14
CCOc1ccc(N(CC(=O)NCCSCc2ccccc2)S(C)(=O)=O)cc1	3	0	3	5	-10	-17	i	15
Cc1cc(/C=N/NC(=O)c2ccc(O)cc2)c(C)n1C1CC1	2	2	8	-5	-15	-11	i	-8
CCC[C@H]1CC(=O)C=C(c2ccc(OC)cc2)ON1C(=O)OC(C)(C)C	0	-1	·	·	·	1	·	?
COc1cc(CN2CCC(CCC(=O)NC3CC3)CC2)cc(Cl)c1OC	-1	2	-4	-8	-11	-5	i	9
Nc1ccc(Oc2ccccc2-c2ccccc2)cc1	0	-3	·	·	18	-25	i	37
CC(=O)c1ccc(OC(=O)N2CCOCC2)cc1	1	1	5	-1	-12	-12	i	-39
CCCNC(=O)c1nn2c(C(F)(F)F)cc(-c3ccccc3)nc2c1Br	1	-1	-5	4	-6	-2	i	3
COc1cccc(-n2c(Cn3nc(C(F)F)cc3C(F)F)n[nH]c2=S)c1	4	7	-1	2	-12	·	i	3
Cc1cccc(NC(=O)c2cnn(-c3ccccc3)c2C)c1C	-1	-2	-6	-6	-7	-21	i	-14
O=C(COC(=O)C1(c2ccccc2)CCCC1)N1CCNC1=O	2	0	·	·	14	-17	·	·
O=C(NC1CC1)C1CCC(=O)N1C1CCCC1 (stereo not given)	-1	0	0	10	7	7	i	·
Cc1cccc(NC(=S)NCc2ccccc2)c1C	3	-1	-5	3	-11	-31	i	-42
NC(=O)c1ccccc1NC(=O)CN1CCN(Cc2ccccc2)CC1	3	4	0	1	0	-8	i	-1
CCOC(=O)Nc1ccc(NC(=O)c2ccccc2F)cc1	2	3	4	-7	-2	·	i	-31
O=C(CSc1nnc(-c2ccncc2)o1)N1CCc2ccccc2C1	0	-1	-8	9	-4	-8	i	-3
CC12C(=O)N(c3cccc4cccnc34)C(=O)C1C1C=CC2C1 (stereo not given)	-2	0	1	-3	7	-5	i	?
CCN(CCNC(=O)C1CCN(S(=O)(=O)CC)CC1)c1ccccc1	5	1	-3	0	-17	·	i	·
Cc1cccn2c(=O)c(C=O)c(Sc3ncccn3)nc12	0	1	-2	-1	9	·	i	14
COc1ccc(C(CNC(=O)c2ccc(C)c(S(=O)(=O)N3CCCCC3)c2)N(C)C)cc1OC (stereo not given)	4	2	2	15	4	·	i	3
Nc1nc(SCC(=O)c2c(N)n(Cc3ccccc3)c(=O)[nH]c2=O)n[nH]1	4	4	-4	5	-4	·	i	-5
CCOc1ccc(/C=C2\SC(=S)N(CCC(=O)Nc3cccc(C(=O)O)c3)C2=O)cc1	0	2	-1	7	-10	-7	i	19
Cc1csc(=O)n1CC(=O)OCC(=O)Nc1ccc(F)c(F)c1F	3	6	·	·	·	-5	·	0
O=C(c1ccco1)n1nc(-c2ccccc2)nc1NCc1ccco1	4	3	5	-8	-4	-23	i	5
CC(C)[C@H](NC(=O)[C@@H]1Cc2ccccc2CN1C(=O)OC(C)(C)C)C(=O)NCc1ccco1	-4	-1	·	·	-6	8	i	1
Cc1ccccc1OCCCC(=O)Nc1nccs1	1	-14	4	8	3	·	i	·
c1ccc(-c2csc3ncnc(N4CCOCC4)c23)cc1	-7	-1	-5	2	·	·	i	27
N#Cc1c(NC(=O)C2CC(Cl)=CCC2C(=O)O)sc2c1CCCC2 (stereo not given)	0	2	1	4	-7	·	i	5
CCCCCCNC(=O)C(C#N)c1nc2ccccc2nc1N1CCOCC1 (stereo not given)	1	-2	52	124	2	5	i	·	eIF4H inh retest=-9;PABP polyA inh retest=3
Cc1ccc(C(=O)Nc2cccc(N(C)S(C)(=O)=O)c2)cc1S(=O)(=O)Nc1ccccc1	4	-6	3	2	3	·	i	·
Cc1ccc(C)c(S(=O)(=O)N2CCCC2CNC(=O)C(=O)NCCc2ccco2)c1 (stereo not given)	0	-2	·	·	9	·	i	-69
CCNC(=O)C1CCCN(C(=O)c2cccc(Cl)c2)CC1 (stereo not given)	5	6	·	·	·	-18	·	-11

Quoted at random: 3 records from the list, in no set order.
SMILES	MT1-MMP act inh	MT1-MMP act inh RFP	eIF4H inh	PABP polyA inh	CSC inhib	UUG fidelity	Rce1 inhib	HIV Env fusion	others
Cc1ccc(C)c(S(=O)(=O)N2CCCC2CNC(=O)C(=O)NCCc2ccco2)c1 (stereo not given)	0	-2	·	·	9	·	i	-69
CCCCCCNC(=O)C(C#N)c1nc2ccccc2nc1N1CCOCC1 (stereo not given)	1	-2	52	124	2	5	i	·	eIF4H inh retest=-9;PABP polyA inh retest=3
Nc1nc(SCC(=O)c2c(N)n(Cc3ccccc3)c(=O)[nH]c2=O)n[nH]1	4	4	-4	5	-4	·	i	-5

Further results.
SMILES	MT1-MMP act inh	MT1-MMP act inh RFP	eIF4H inh	PABP polyA inh	CSC inhib	UUG fidelity	Rce1 inhib	HIV Env fusion	others
COc1ccc(CCNC(=O)CSc2nc(N)c(C#N)c(-c3cccs3)c2C#N)cc1OC	1	-3	3	8	-12	-6	i	119*
Cc1cccc(C(=O)Nc2cccc(C(=O)N/N=C/c3cccc(C)n3)c2)c1	0	2	8	4	8	-11	i	-3
CCc1nc2ccc(C(=O)O)cc2nc1CC	-1	1	5	-3	-11	·	i	·
Cc1ccc(-c2n[nH]c(=S)n2/N=C\c2ccco2)cc1	-1	2	-15	-20	-1	-4	i	·
CCC(C)Nc1nc2c(c(=O)[nH]c(=O)n2C)n1CCC(C)C (stereo not given)	2	1	10	3	·	-3	i	·
CN1CCCN(C(c2ccccc2)c2ccc(Cl)cc2)CC1 (stereo not given)	-15	-9	6	-11	·	-12	i	·
CC(=O)Nc1cccc(-c2csc(C(O)c3cccc(Cl)c3)n2)c1 (stereo not given)	4	-5	·	·	·	-16	·	16
COc1ccccc1C(=O)NCCCNC(=O)c1cccnc1	-2	2	-3	-2	·	-14	i	-10
COCCNc1nc2ccccc2n1CC(=O)c1ccc(OC)c(OC)c1	-3	0	11	11	-10	3	i	11
CC1(C)NC(=O)N(CC(O)Cn2nnc3ccccc32)C1=O (stereo not given)	-1	5	-10	-1	12	-26	i	·
Cc1cccn2cc(-c3ccc(S(=O)(=O)N4CCOCC4)cc3)nc12	4	-5	-7	10	-17	-11	i	10
O=C(Cc1ccc([N+](=O)[O-])cc1)N/N=C/c1ccco1	1	7	-8	4	-12	·	i	-1
Cc1ccc2c(c1)c(N=NC(N)=O)c(O)n2C	3	4	5	8	-8	·	i	-5
O=C(NCc1ccco1)c1sc2cccc(F)c2c1Cl	7	-3	-8	13	0	-10	i	·
Nn1c(SCC(=O)NC(=O)NCc2ccccc2)nnc1C1CC1	-1	1	-11	-1	·	-16	i	-41
CN(c1ccc(C(=O)NCCSC(C)(C)C)cc1)S(=O)(=O)c1ccccc1	-3	-10	3	32	-3	12	i	3
Cc1cccc(NC(=O)C2CCCN(S(=O)(=O)c3c(C)nn(C)c3C)C2)n1 (stereo not given)	-3	-13	-6	6	-5	-7	i	4
O=C(Nc1ccc2c(c1)N(S(=O)(=O)c1cccs1)CCC2)c1c(F)cccc1Cl	1	-3	·	·	·	4	i	0
CC1=Nc2nc(N3CCCCCC3)c(C#N)c3c4c(nc(c23)N1)N(c1ccc2ccccc2c1)C(=O)C4	-3	-1	·	·	-8	-18	i	·
N#Cc1c(Cl)cccc1N1CCC(C(N)=O)CC1	-1	-1	2	8	-1	0	i	15
